Screening results (PubChem BioAssay)
Mtb growth – Mycobacterium tuberculosis H37Rv growth inhibition, cell based, confirmatory dose response (AID 1949); most inactive calls were filed without a number and no value below 0 was filed; inhibition, % at 10 µg/mL; hits with a dose series show IC50 in µg/mL; 100,000 tested, 1.6% active;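 active = confirmed in a dose series; inconclusive = about 50% or more but not retested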;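 also: bacteria grown 7 days with compound before Alamar blue readout; 0% = untreated bacteria and 100% = reference antibiotic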
The depositor's hits bear a star; i = inactive; ? = inconclusive. Only part of the results is shown; count on the stated rates, not on these rows.

mol | Mtb growth
CN1CCCCc2c1[nH]c1ccccc1c2=O | i
Cc1cc(Br)cc(C)c1OC(=O)c1cccs1 | i
O=C(CSc1nnc(-c2ccccc2)n1-c1ccccc1)Nc1ccc(S(=O)(=O)Nc2ccccn2)cc1 | i
COc1cc(CNc2ccc(CNc3ncn[nH]3)cc2)cc(Cl)c1OCc1ccccc1 | ?
O=C(CCn1cnc2ccccc2c1=O)NCc1ccc(Cl)cc1 | i
CCOc1ccc(C(=O)Nc2ccc3oc(=O)ccc3c2)cc1[N+](=O)[O-] | i
O=S(=O)(Nc1ccc(O)c(Sc2nc3ccccc3s2)c1)c1cccs1 | i
O=C(Cn1cnc2ccccc21)NCc1ccccc1 | i

2 of the compounds above, with each value named.
mol: CCOc1ccc(C(=O)Nc2ccc3oc(=O)ccc3c2)cc1[N+](=O)[O-]
- Mtb growth = i

mol: O=C(CCn1cnc2ccccc2c1=O)NCc1ccc(Cl)cc1
- Mtb growth = i

The main list resumes, starting eight compounds before the break.
mol | Mtb growth
CN1CCCCc2c1[nH]c1ccccc1c2=O | i
Cc1cc(Br)cc(C)c1OC(=O)c1cccs1 | i
O=C(CSc1nnc(-c2ccccc2)n1-c1ccccc1)Nc1ccc(S(=O)(=O)Nc2ccccn2)cc1 | i
COc1cc(CNc2ccc(CNc3ncn[nH]3)cc2)cc(Cl)c1OCc1ccccc1 | ?
O=C(CCn1cnc2ccccc2c1=O)NCc1ccc(Cl)cc1 | i
CCOc1ccc(C(=O)Nc2ccc3oc(=O)ccc3c2)cc1[N+](=O)[O-] | i
O=S(=O)(Nc1ccc(O)c(Sc2nc3ccccc3s2)c1)c1cccs1 | i
O=C(Cn1cnc2ccccc21)NCc1ccccc1 | i
Cc1cc(Cl)ccc1OCC(=O)Nc1cc(F)ccc1F | 2%
NC(=O)c1ccccc1NC(=O)NC1CCCCC1 | i
CCOc1ccc(C(=O)NCC2(c3ccccc3)CCCC2)cc1OC | 4%
COC(=O)c1cccc(NC(=O)COc2ccc(-c3ccc(C)cc3)cc2)c1 | 4%
Cc1ccc(SCC(=O)Nc2ccc(-c3nnc(-c4ccco4)o3)cc2)cc1 | i
CCOC(=O)c1c(NC(=O)/C=C/c2ccco2)sc2c1CC(C)(C)OC2 | i
CCOC(=O)C1CCN(C(=S)Nc2ccc(CC(=O)OC)cc2)CC1 | i
O=c1[nH]c2ccccc2nc1/C=C(\O)c1cccs1 | i
COC(=O)c1ccccc1NC(=O)c1ccc(OC)c(I)c1 | i
CC1CN(C2CC(C)(C)NC(C)(C)C2)CCC1=O (centres undefined) | i
O=C1N/C(=N/N=C/c2cccs2)SC1Cc1ccc(Br)cc1 (centres undefined) | i
CCCOc1cccc(C(=O)NC(=S)Nc2cccc(C(=O)O)c2)c1 | i
CCOC(=O)C1CCN(C(=O)CN(c2cccc(C)c2C)S(C)(=O)=O)CC1 | i
COc1ccc(Cl)cc1NC(=O)NNC(=O)c1cn(C)c2ccccc12 | i
Cc1ccc2oc(=O)n(CCOc3ccc(Br)cc3)c2c1 | 24%
COc1ccc(CNC(=O)C2CCN(S(=O)(=O)c3cc(Cl)ccc3Cl)CC2)cc1 | i
c1ccc(-c2csc(Nc3nc(N4CCOCC4)nc(N4CCOCC4)n3)n2)cc1 | i
O=C(c1cccc(S(=O)(=O)N2CCc3ccccc3C2)c1)N1CCCc2ccccc21 | 1%
CCSc1nc2ccccc2[nH]1 | i
O=C(Nc1ncnc2sc3c(c12)CCCC3)c1ccc(F)cc1 | 0.52µg/mL*
CCCCNC(=O)C(=O)NCCCn1ccnc1 | i
O=C(Nc1ccc(-c2nc3ccccc3o2)cc1)C1CCCO1 (centres undefined) | 1%
CCN1CCN(C(=S)Nc2cccc(C)c2)CC1 | 4%
CC(=O)CSc1nc2sc3c(c2c(=O)n1Cc1ccccc1)CCC(C)C3 (centres undefined) | i
NC(=O)c1c(NC(=O)CSc2ccc(Cl)cc2)sc2c1CCCCC2 | i
CCCn1c(SCC(=O)Nc2ccccc2Cl)nnc1-c1ccncc1 | i
Cc1cccc(C(C)(C)C)c1OCCCNCCN | 2%
O=C(CCC1COc2ccccc2O1)Nc1ccc(Cl)cn1 (centres undefined) | i
COC(=O)c1ccccc1NC(=O)C(C)NS(=O)(=O)c1ccc(Br)cc1 (centres undefined) | 2%
CN(C)c1ccc(/C=C2/C(=O)ON=C2c2ccccc2)cc1Br | 2%
CC(=O)NC(c1ccc(Cl)cc1)c1ccc2cccnc2c1O (centres undefined) | i
NC(=O)c1c(NC(=O)c2ccc(-c3ccccc3[N+](=O)[O-])o2)sc2c1CCCC2 | 34%
Cc1c(Cc2ccccc2)c(=O)oc2cc(OCC(=O)N3CCCC3)ccc12 | 0%
COc1ccc2c(Cl)c(-c3nnc(SCC(=O)c4ccccc4)n3C)sc2c1 | i
O=C(NCc1ccccn1)C1CCCC1 | i
CCCS(=O)(=O)N1CCN(c2ccccn2)CC1 | i
Cc1ccnc(NC(=O)CC(c2ccccc2)c2ccccc2)n1 | 10%
O=C(Nc1ccc(-c2cc3ccccc3oc2=O)cc1)c1cccnc1 | i
Cc1cc(NS(=O)(=O)c2ccc(NC(=O)Cc3ccc(Cl)cc3)cc2)no1 | i
O=C(O)CCC(NC(=O)/C(=C/c1ccccc1)NC(=O)c1ccccc1)C(=O)O (centres undefined) | i
COc1ccc(NC(=O)c2ccccc2NC(=O)c2cccc(OC(C)=O)c2)cc1 | 0%
Cc1cc(C(=O)Nc2nnc(-c3ccncc3)s2)cs1 | i
Cc1ccc(C(=O)O/N=C(\N)c2ccccc2)c(C)c1 | i
CCSCCOC(=O)C1=C(C)NC2=C(C(=O)CC(C)(C)C2)C1c1cc(Br)ccc1OC (centres undefined) | i
CCOC(=O)c1ccccc1NC(=O)c1ccc(N(C)S(=O)(=O)c2ccc(C)cc2)cc1 | 7%
Cc1ccc(S(=O)(=O)NCC(c2ccccc2)N(C)C)cc1 (centres undefined) | 2%
Cc1ccc2occ(C(=O)c3ccco3)c(=O)c2c1 | i
Cc1cc(C(=O)NN2CCOCC2)cs1 | i
COC(=O)C1=C(C)NC2=C(C(=O)CC(c3ccccc3)C2)C1c1ccccc1Br (centres undefined) | 7.5µg/mL*
O=C(CN1CCCCC1)Nc1nnc(-c2ccccc2)s1 | i
COc1ccc(N(CC(=O)NCC2CCCO2)S(C)(=O)=O)c(OC)c1 (centres undefined) | i
C(=C/c1nccc2c1[nH]c1ccccc12)/c1ccc2c(c1)OCO2 | i
O=S(=O)(c1ccccc1)N1CCc2ccccc21 | 4%
Cc1cccc(C)c1OCc1nnc(SCC(=O)Nc2ccc(F)c(Cl)c2)n1-c1ccccc1 | i
COc1ccc(-c2csc(NC(=S)NC(=O)c3ccccc3F)n2)cc1OC | 4%
CCOc1ccccc1N(CC(=O)Nc1ccccc1OC)S(C)(=O)=O | 5%

Continuation.
mol	Mtb growth
CCCc1ccc(OC(=O)c2ccc(Cl)cc2)cc1	3%
CC(=O)N(C)c1ccc(NC(=O)CCc2ccccc2)cc1	i
O=C(COc1cccc2cccnc12)N1c2ccccc2CCc2ccccc21	i
O=C(O)CC(c1ccccc1)c1cc(Cl)ccc1O (centres undefined)	0%
CCOc1cc(CO)c(Br)cc1OC	i
CCOC(=O)N1CCN(C(=O)c2ccc(N(C)S(=O)(=O)c3ccc(C)cc3)cc2)CC1	i
O=C(Cc1ccc(Cl)cc1)N1CCN(C(=O)c2ccco2)CC1	i
Cc1cccc(N/C(=N\S(=O)(=O)c2ccc(Br)cc2)c2ccccc2)c1	i
CCCN(CCC)C(=O)c1cc(Cl)ccc1OC	2%
Cc1ccc(C(=O)N2CCN(c3ccc(NC(=O)c4ccc(C)cc4Cl)cc3)CC2)cc1	3%
Cc1ccc(SCC(=O)NCCSC2CCCCC2)cc1	1%
Cc1cc(C)cc(NC(=O)COc2cccc(C=O)c2)c1	3.3µg/mL*
Cc1cccc(N2C(=O)CC(N3CCN(C4CC(=O)N(c5cccc(C)c5)C4=O)CC3)C2=O)c1 (centres undefined)	i
CCN(CC)c1ccc(NC(=S)NC(=O)c2cccc(C)c2OC)cc1	i
c1ccc(OCCSc2nc3ccccc3[nH]2)cc1	i
Cc1ccc(OCC(=O)Nc2cc(Cl)ccc2C(=O)O)cc1C	i
O=c1ccc(-c2n[nH]c(=S)n2-c2cc(C(F)(F)F)ccc2Cl)n[nH]1	0%
O=C(NCc1ccc2c(c1)OCO2)Nc1ccc2snnc2c1	i
CCc1sc(C(=O)N2CCC3(CC2)OCCO3)cc1Br	i
COC(=O)c1ccccc1OCCCCn1cnc2ccccc2c1=O	i
Cc1ccc(C(=O)NC(=S)Nc2cccc(-c3nc4ncccc4o3)c2)c(C)c1	5%
CC(=O)C(Sc1nc(NCc2ccccc2)nc(N(C)C)n1)C(C)=O	i
CN(c1ccccc1)S(=O)(=O)c1ccc2ccccc2c1	i
O=C(Cn1cc(C(=O)c2ccccc2)c2ccccc21)NCCc1ccccc1	i
CN1CCN(C(=O)CSc2c(-c3ccccc3)c3cc(Cl)ccc3[nH]c2=O)CC1	4%
CCC(C)NCCCCOc1cccc(Oc2ccccc2)c1 (centres undefined)	i
CCc1cc2c(=O)n(-c3cccc(OC)c3)cnc2s1	i
C=CCN(C(=O)Nc1ccccc1)C1CC(=O)N(c2ccc(OC)cc2)C1=O (centres undefined)	i
COc1ccc(-c2csc3ncn(CC(=O)Nc4ccccc4)c(=O)c23)cc1	11%
CCOC(=O)c1c(N)sc(C(=O)Nc2ccc(Cl)cc2)c1C	1%
Cc1cc(C)c(NC(=O)CN(c2cccc(Cl)c2C)S(C)(=O)=O)c(C)c1	i
Cc1ccc(NC(=O)c2cc(=O)c3ccccc3o2)cc1	i
O=C(CCC1CCCCC1)Nc1ccc2c(c1)OCCO2	i
C=CCc1cc(OC)ccc1OCCCNC(C)C	i
COc1ccc(N2CCN(C(=O)c3cc([N+](=O)[O-])ccc3N3CCN(CCO)CC3)CC2)cc1	i
O=C(NCCN1CCN(c2ccccc2)CC1)Nc1cccc(Cl)c1	?
COC(=O)c1cc(Cc2ccccc2)sc1NC(=S)NCc1ccccn1	i
COc1cccc(-c2nc3ccc(O)cc3c(=O)o2)c1	?
CCOC(=O)Oc1ccc2c(-c3ccccc3)cc(=O)oc2c1	i
CCOc1ccc(NC(=O)c2oc3cc(C)c(C)cc3c2C)cc1	i
O=C(Nc1ccc(F)cc1)Nc1ccc(N2CCOCC2)c2nonc12	i
CC1(C)C(C(N)=O)C(N)=NC(=S)C1c1nc(-c2ccc(Cl)cc2)cs1 (centres undefined)	i
Cc1cccc(C)c1OCc1nnc(SCC(=O)Nc2cccc(Cl)c2C)o1	i
CN1CCN(C(=O)CN(c2ccc(Cl)cc2)S(C)(=O)=O)CC1	i
Cc1cc(C)nc(NC2=NCC(=O)N2CCc2c[nH]c3ccccc23)n1	i
COc1c(C)cc(Br)cc1C(=O)NC(=S)Nc1nc(C)cc(C)n1	i
O=C(CNC(=O)c1ccco1)OCc1ccc(Cl)cc1Cl	0%
O=C(NCCc1ccccc1)C1CCN(Cc2cccnc2)CC1	i
Cc1cccc(C(=O)NCc2nnc(SCC(=O)Nc3cccc(C)c3C)n2-c2ccccc2)c1	i
CCc1cc(=O)oc2cc(OCc3c(F)cccc3F)ccc12	i
Cc1ccc2c(c1)n([O-])c1c([n+]2=O)CCCC1	5%
Cc1ccc(C(=O)NC(c2ccccc2)c2ccccc2)o1	2%
CCSc1nnc(NC(=O)Cc2ccc(Cl)cc2)s1	i
CS(=O)(=O)N(Cc1ccccc1Cl)c1ccc(C(=O)O)cc1	i
CCOC(=O)c1cnc2c(C)cccc2c1Nc1cccc(O)c1	2%
O=C(Nc1cccnc1)c1ccc(CN2CCN(c3ccccc3)CC2)cc1	i
CC1CCN(C(=O)C2CCN(S(=O)(=O)c3ccccc3[N+](=O)[O-])CC2)CC1	i
CC(=O)c1cc(C)ccc1OC(=O)CN1C(=O)c2ccccc2C1=O	2%
CCOC(=O)COc1ccc(C(=O)NC2CCCCC2)cc1	1.1µg/mL*
CCC(C(=O)Nc1nnc(COc2ccc(Cl)cc2)s1)c1ccccc1 (centres undefined)	i

Reformatted field by field: entries from further up.
> Cc1cc(C)c(NC(=O)CN(c2cccc(Cl)c2C)S(C)(=O)=O)c(C)c1
  Mtb growth: i
> CCc1cc(=O)oc2cc(OCc3c(F)cccc3F)ccc12
  Mtb growth: i
> O=C(CNC(=O)c1ccco1)OCc1ccc(Cl)cc1Cl
  Mtb growth: 0%
> COc1ccc(N2CCN(C(=O)c3cc([N+](=O)[O-])ccc3N3CCN(CCO)CC3)CC2)cc1
  Mtb growth: i

(further entries)
mol	Mtb growth
CCOC(=O)c1ccccc1NC(=O)c1ccc(CN(c2ccccc2)S(C)(=O)=O)cc1	i
Cc1ccc(C2CC(=O)Nc3cc4c(cc32)OCO4)o1 (centres undefined)	i
COc1cc(NS(=O)(=O)c2ccc(C)cc2)c(OC)cc1Cl	i
O=C(CSc1ncnc2scc(-c3ccccc3)c12)N1CCCCCC1	i
COc1cc([N+](=O)[O-])ccc1NC(=O)CCC1CCCC1	i
Cc1ccccc1C(=O)NC(=S)NCc1ccc(-c2nn3c(C)nnc3s2)cc1	i
Cc1ccc(C(=O)NCc2ccc(F)cc2)c(C)c1	i
COc1ccc(OC(=O)COc2nc3nc(C)cc(C)c3[nH]2)cc1	1%
COc1cccc2cc(C(=O)Nc3cccc(Cl)c3)c(=O)oc12	i
O=C(CN(c1ccc(Cl)c(Cl)c1)S(=O)(=O)c1ccccc1)Nc1cccc([N+](=O)[O-])c1	1.5µg/mL*
CSc1ccc(CNC(C)C(O)c2ccccc2)cc1 (centres undefined)	i
CCCCn1c(CCNC(=O)C(C)C)nc2ccccc21	i
CCOc1ccc(NC(=S)Nc2ccn(Cc3ccccc3C)n2)cc1	i
CCN(CC(=O)O)S(=O)(=O)c1ccc(Br)cc1	i
Cc1cc(C)c2cccc(NC(=S)NC(=O)c3ccco3)c2n1	16%
CCOc1ccc(-n2c(SCC(=O)NCC3CCCO3)nnc2-c2ccc(Cl)cc2)cc1 (centres undefined)	i
O=C(Nc1ccc2nsnc2c1)N1CCCCCC1	i
